Screens (PubChem)
D2 ag = Beta-Arrestin HTS for Positive Allosteric Modulators of the Human D2 Dopamine Receptor: Agonists | activation, % (concentration not given with the values) | DiscoveRx PathHunter D2 beta-arrestin, luminescence, 90 min; 100% = 57 uM dopamine signal | 0.084% of 360,000 active | D(2) dopamine receptor (Homo sapiens), P14416 | AID 624465, 2012; in the data active = activation above about 40%; inconclusive = about 15% to 40%; inactive = below about 15%; note: compound concentration not given in the record; the text of the record calls up to 30% inactive
Target sequence (P14416 whole entry, looked up): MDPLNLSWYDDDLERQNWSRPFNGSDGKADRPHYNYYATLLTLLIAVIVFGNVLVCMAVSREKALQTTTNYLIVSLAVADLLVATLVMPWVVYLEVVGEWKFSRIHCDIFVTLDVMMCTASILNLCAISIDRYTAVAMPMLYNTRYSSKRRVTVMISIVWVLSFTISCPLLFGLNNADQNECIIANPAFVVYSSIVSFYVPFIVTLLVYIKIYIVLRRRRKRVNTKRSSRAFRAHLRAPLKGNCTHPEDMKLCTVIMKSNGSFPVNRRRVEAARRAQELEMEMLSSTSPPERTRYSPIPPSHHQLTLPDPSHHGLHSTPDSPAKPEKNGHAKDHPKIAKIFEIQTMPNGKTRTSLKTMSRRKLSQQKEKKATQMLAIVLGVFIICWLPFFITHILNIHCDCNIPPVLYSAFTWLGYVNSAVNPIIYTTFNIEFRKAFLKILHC
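Agonist mode: compounds alone added to overnight-plated D2 PathHunter cells for 90 min at 37 C, with 57 uM final dopamine (EC100) defining full response. Beta-arrestin recruitment detected by chemiluminescent reagent, read after 1 h at ambient temperature.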
PINK1 modulator = A Quantitative High throughput Screen to Identify Chemical Modulators of PINK1 Expression; PINK1 immunofluorescence, high-content cytometry, 24 h; Potency, µM (series often up to 76.6 µM), without a hit: at the top dose activation (PINK1 increase), most hits filed as activators; 0.2% of 410,000 active; AID 624263, 2012; active = well fitted activation curve with a large enough effect; inconclusive = small, poorly fitted or top-dose-only effect; inactive = flat fitted curve, though single readings scatter; cell line not stated here;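 note: potency is the fitted concentration of half-maximal effect; % of control where 0% means no effect; nearly all actives have a fitted effect of over 65% in size; a mitochondrial uncoupler was the plate control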
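PINK1 protein, normally rapidly degraded, was detected by immunofluorescence after 24 hour compound treatment of a stable cell line. Titration data (5 concentrations) came from laser-scanning cytometry, with CCCP-treated wells as controls.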
Six1-Eya2 blk = qHTS Assay for Inhibitors of the Six1/Eya2 Interaction; Homeobox protein SIX1 (Homo sapiens) + Protein phosphatase EYA2 (Homo sapiens), …; AlphaScreen GST-Six1/His-Eya2 binding, biochemical; stronger effect = lower value; control for the full effect not named in the record; activity change, % (concentration not given with the values); 0.56% of 360,000 active; in the data active = activity change below about -65%; inconclusive = about -30% to -65%; inactive = above about -30%; note: % is set by controls: 0 for no effect and ±100 for the full control effect
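Homogeneous AlphaScreen proximity assay pairing GST-Six1 with His-tagged Eya2 (added as 5X mix: 250 nM and 500 nM) in 50 mM Tris pH 8.0, 300 mM NaCl, 1 mM TCEP. Glutathione donor and nickel acceptor beads; 1 h, 37 °C, dark.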
D2 PAM = Beta-Arrestin HTS for Positive Allosteric Modulators of the Human D2 Dopamine Receptor: Potentiators; D(2) dopamine receptor (Homo sapiens), P14416; DiscoveRx D2 beta-arrestin cells, luminescence, 90 min; 100% = 57 uM dopamine signal; potentiation, % (test concentration not listed); 0.23% of 360,000 active; active = potentiation of 50% or more; inconclusive = 30% to 50%; inactive = 30% or less;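 note: compound concentration not given in the record; tested on top of an EC20 dose of dopamine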
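PathHunter D2 cells, attached overnight at 37 deg C, received compound in DMSO plus dopamine at EC20 (50 nM final) for 90 min at 37 deg C. Beta-arrestin recruitment was read as luminescence after 1 h with detection reagent at ambient temperature.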
CtBP-E1A blk = qHTS Assay for Inhibitors of the CtBP/E1A Interaction; CtBP / adenovirus E1A interaction (AlphaScreen); AID 651724, 2012; activity change, % (concentration not given with the values); AlphaScreen GST-E1A/His-CtBP binding, 1536-well; stronger effect = lower value; control for the full effect not named in the record; 0.49% of 340,000 active; in the data active means activity change below about -65%; inconclusive means about -30% to -65%; inactive means above about -30%; note: % is set by controls: 0 for no effect and ±100 for the full control effect
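Protein mix (5X: 125 nM each GST-E1A, His-CtBP) was incubated with pinned compound 2 h at 37 deg C in dark, in 50 mM Tris pH 8.0 buffer with 300 mM NaCl. Glutathione donor and nickel acceptor beads followed; AlphaScreen signal read after 1 h.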
TRPML1 agonist = qHTS for Agonists of the Human Mucolipin Transient Receptor Potential 1 (TRPML1) | Mucolipin-1 (Homo sapiens), Q9GZU1 | TRPML1-expressing cells, Ca2+ dye fluorescence, FDSS; host cell line not named in the record; reference of the full effect not given here | activation, % (test concentration not listed) | 0.12% of 410,000 active | AID 624414, 2012; in the data active = activation above about 50%; inconclusive = about 30% to 50%; inactive = below about 30%; note: 0% is about no effect; the text of the record puts the active cut at 80%
Target sequence (Q9GZU1 whole entry, looked up): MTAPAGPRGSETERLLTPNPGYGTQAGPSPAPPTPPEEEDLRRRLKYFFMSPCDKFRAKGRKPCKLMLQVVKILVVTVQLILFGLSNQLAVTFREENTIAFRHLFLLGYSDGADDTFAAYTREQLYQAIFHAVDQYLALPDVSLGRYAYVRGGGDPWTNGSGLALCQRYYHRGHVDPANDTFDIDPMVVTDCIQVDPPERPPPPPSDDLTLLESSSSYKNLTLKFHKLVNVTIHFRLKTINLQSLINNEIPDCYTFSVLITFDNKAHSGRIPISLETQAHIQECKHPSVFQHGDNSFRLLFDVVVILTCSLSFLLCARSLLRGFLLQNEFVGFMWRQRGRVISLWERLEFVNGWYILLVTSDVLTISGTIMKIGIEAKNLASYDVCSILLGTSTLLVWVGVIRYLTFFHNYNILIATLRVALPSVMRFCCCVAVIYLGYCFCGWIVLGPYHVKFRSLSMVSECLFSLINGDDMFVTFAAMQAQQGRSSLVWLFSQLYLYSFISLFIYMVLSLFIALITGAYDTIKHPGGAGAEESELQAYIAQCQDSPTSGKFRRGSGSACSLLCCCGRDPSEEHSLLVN
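TRPML1-DL cells, Tet-induced overnight (~16 h, 37 degrees C), loaded 45-90 min at room temperature with Ca8 no-wash calcium dye plus quencher. FDSS fluorescence: 10 s baseline, compound pin-transfer, 110 s agonist read, then EC80 54-4 (4uM final) and 110 s antagonist read.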
Active calls of the source: *; ? = inconclusive; . = not tested or not shown; & = joins results of further samples; [ ] = dose if it differs, or a comment.

SMILES	D2 ag	PINK1 modulator	Six1-Eya2 blk	D2 PAM	CtBP-E1A blk	TRPML1 agonist
O=C(CSc1n[nH]c(-c2cccs2)n1)NC1CCS(=O)(=O)C1 (stereo not given)	-3.0	1.0%	0	-10	0	0.0
O=C(O)CCc1nn2c3ccccc3nc2n(Cc2ccccc2)c1=O	-1.5	2.3%	13	-4	.	-1.0
O=C(CSc1nc2ccccc2c(=O)n1NC(=O)Cc1ccccc1)NCc1ccccc1	1.0	3.6%	-4	5	-9	-0.7
Cc1ccc2cc(C)c(N3CCN(c4ccccn4)CC3)nc2c1	2.1	-1.3%	22	-4	0	2.3
C(=C\c1ccccc1)/C=N/N1CCN(c2ccccn2)CC1	-2.5	3.2%	?	8	-20	2.8
O=C(O)CCN1C(=O)c2ccc(NC(=O)c3ccco3)cc2C1=O	4.6	0.8%	10	-4	2	1.0
C/C(=N\NC(=O)c1ccccc1)c1ccc(NC(=O)c2cccs2)cc1	-2.3	2.1%	-7	-15	-1	0.7
COc1ccc(N(CC(=O)NCc2ccccc2Cl)S(=O)(=O)c2c(C)noc2C)cc1	-0.2	-0.8%	0	5	3	-0.7
c1ccc(Sc2ccccn2)cc1	-4.6	-0.1%	6	-17	5	0.3
O=c1c2sc(-c3ccccc3)cc2nc2n1CCCCC2	0.2	-1.0%	0	3	-2	0.0
O=C(/C=C/c1ccc(OC(F)F)cc1)OCC(=O)N1CCN(C(=O)c2ccco2)CC1	7.8	0.2%	-17	12	?	1.0
NC(=O)c1nsc(C(=O)N(c2ccccc2)C(C(=O)NCc2ccc(F)cc2)c2ccco2)c1N (stereo not given)	3.7	3.4%	5	2	-20	-0.1
COc1cc(NC2c3ccccc3C(=O)N2c2cc(C)ccn2)cc(OC)c1OC (stereo not given)	-5.1	0.6%	0	-15	7	0.2
CCOc1ccc(C(=O)NCC(=O)OCC(=O)Nc2ccccc2OCC)cc1	0.0	-1.0%	4	-3	4	0.4
O=C(COC(=O)C1CCN(c2ccc(C(F)(F)F)cn2)CC1)NCc1cccc(Cl)c1	-7.3	0.0%	-11	-30	7	5.1
COc1cccc(-c2nc(CS(=O)(=O)CC(=O)NC3CCCCC3C)c(C)o2)c1 (stereo not given)	1.1	1.1%	0	-15	-2	1.2
COC(=O)[C@]1(Cc2ccccc2)N[C@H](CN(C)S(=O)(=O)c2ccc(C(C)(C)C)cc2)[C@@H]2C(=O)N(Cc3ccccc3)C(=O)[C@@H]21	-1.9	1.3%	18	-1	23	0.2
COCCNC(=O)CSc1nc(-c2ccccc2)c(-c2ccccc2)o1	-4.8	.	-17	2	-8	-0.1
COc1cccc(NC(=O)CSc2ccc3nnc(-c4cccnc4)n3n2)c1	0.1	0.2%	-23	-10	?	-0.6
CC1(C)CC(=O)C(C(c2cc([N+](=O)[O-])ccc2Cl)C2C(=O)CC(C)(C)CC2=O)C(=O)C1	4.3	4.6%	-11	-10	9	-0.6
Cc1cc(C)c(C#N)c(OCC2CCCO2)n1 (stereo not given)	-1.6	1.2%	-2	-2	-2	-1.3
O=C(Nc1ccc(S(=O)(=O)N2CCOCC2)cc1)c1ccc2c(c1)S(=O)(=O)c1ccccc1C2=O	-1.2	13%	2	1	1	-0.2
CN(C)S(=O)(=O)c1ccc(NC(=O)COc2ncnc3c2cnn3-c2ccccc2)cc1	0.2	-1.3%	4	-8	1	-0.2
COc1ccc(-n2c(N3CCN(C)CC3)nc3sc4c(c3c2=O)CCCCC4)cc1	-0.2	-1.2%	-1	-12	-9	-0.4
Cc1c(CCOC(=O)c2ccc(Cl)cc2Cl)sc[n+]1CC(=O)c1ccc(Br)cc1	-2.5	-1.4%	-8	-28	.	-1.7
COc1ccc(CCC(=O)N2CCN(S(=O)(=O)c3cccs3)CC2)cc1	0.8	-1.1%	8	0	2	-0.1
O=c1[nH]c2cccnc2n1-c1cccc([N+](=O)[O-])c1	-2.9	0.6%	5	-7	-1	0.3
O=C(Cn1cnc2c(nnn2Cc2ccc(Cl)cc2)c1=O)c1ccccc1	4.8	19%	2	1	-1	0.8
CC(C)(C)c1ccc(-c2noc(CCC(N)=O)n2)cc1	-0.8	-1.4%	-1	-3	6	-0.8
COC(=O)CC1CC2(C(=O)OC)c3[nH]c4ccccc4c3CCN2C1=O (stereo not given)	-6.8	2.0%	0	-7	0	-0.4
COCCN(C(=O)c1ccccc1OC1CCN(S(C)(=O)=O)CC1)C(C)C	-5.6	-0.2%	-3	-4	.	0.6
COc1cc(C=O)ccc1OC(=O)c1ccncc1	-2.4	0.8%	-3	-1	-14	0.6
O=C(O)COc1ccc(/C=N/NC(=O)Cc2ccc(Cl)cc2)cc1	-1.6	0.9%	0	-8	-5	0.3
Nc1cc(S(=O)(=O)N2CCCCC2)ccc1N1CCCCC1	3.4	-0.4%	-11	-8	-3	1.4
CCCOc1ccc(C(=O)CCC(=O)OCC(=O)N2CC(=O)Nc3ccccc32)cc1	0.8	-0.2%	-3	-7	-13	1.4
CCOC(=O)Cc1nnc(NC(=O)COc2ccc(C)cc2)s1	0.4	1.2%	2	-6	9	-1.1
CCN1C(=O)N/C(=C/c2cc(C)n(Cc3ccccc3)c2C)C1=O	-2.2	7.2%	-19	0	-23	0.5
C[C@H](NC(=O)c1nc[nH]c1C(=O)NCC(=O)OCc1ccccc1)c1ccccc1	9.0	1.4%	-7	20	-11	0.2
Cc1cscc1-c1cc2nc(NCCCN(C)C)n(C)c(=O)c2s1	7.7	-0.1%	2	-11	-25	-0.2
COc1ccc2c(C)nc(Nc3nc(C)cc(C)n3)nc2c1	-3.7	1.9%[38.3 µM]	-1	-9	-5	-0.7
COc1ccccc1NC(NC(=O)c1ccccn1)C(Cl)(Cl)Cl (stereo not given)	-1.4	3.6%	-11	-11	-6	-0.7
O=C(NC(Nc1ncccn1)C(=O)c1ccccc1)c1ccccc1 (stereo not given)	-0.3	-3.0%	11	-19	3	-0.5
Cn1c2ccccc2c2ccc3c(c21)C(=O)C=CC3=O	-2.1	-2.9%	?	-12	?	1.2
CCOC(=O)N1CCN(CC(=O)NC(=O)Nc2ccc3c(c2)OCCO3)CC1	1.8	4.3%	-6	?	1	-0.2
CC1(c2ccc3c(c2)OCO3)NC(=O)N(CC(=O)Nc2ccccc2)C1=O (stereo not given)	-1.8	2.3%	-3	5	-20	6.4
O=C(N1CCOCC1)n1cnc2ccccc21	-3.4	.	-1	2	-2	-0.2
Cc1ccc(S(=O)(=O)N2CCOC2CNC(=O)C(=O)NCc2ccc3c(c2)OCO3)cc1 (stereo not given)	-1.4	0.6%	-3	-13	1	0.9
O=C(CSc1ccc2nnc(-c3ccccn3)n2n1)Nc1nccs1	1.1	0.6%	-81*	-1	-88*	-0.9
COc1cccc(CN(C(=O)Cc2c[nH]c3ccccc23)C(C(=O)NC2CCCCC2)c2ccc(C)o2)c1 (stereo not given)	-0.2	0.1%	-17	-11	-23	3.9
COc1ccc(OCC(=O)OCC(=O)NCC2CCCCC2)cc1	1.1	0.0%	-1	1	-17	-0.4
Remaining list, next part
SMILES	D2 ag	PINK1 modulator	Six1-Eya2 blk	D2 PAM	CtBP-E1A blk	TRPML1 agonist
COc1ccccc1N1CCN(C(=O)c2cc3cc(Cl)ccc3[nH]2)CC1	-5.5	8.1%	0	-46	.	1.6
Cc1cnc(N2C(=O)c3ccc([N+](=O)[O-])cc3C2=O)s1	4.7	1.3%	1	17	0	0.9
Cc1ccccc1NC(=O)c1ccc(S(=O)(=O)N(C)C)cc1	-4.1	1.3%	4	-3	4	-0.7
Cc1ccc(NC(=O)CN(C)CC(=O)Nc2ccc(N3CCOCC3)cc2)cc1F	-4.1	1.9%	-5	-1	.	0.9
N#Cc1ccsc1NC(=O)c1cccc([N+](=O)[O-])c1	-1.6	6.8%	-4	6	14	-0.3
COc1ccc(Cl)cc1NC(=O)c1cnc2sccn2c1=O	-4.0	5.1%	11	-10	4	0.4
COc1ccc(-c2cc(C(F)(F)F)nc(SCCC(=O)N3CCCC3)n2)cc1	-1.4	2.4%	4	-4	2	0.4
Cc1ccc([C@@H]2CC=C(C(=O)O)[C@H](c3ccccc3F)N2S(=O)(=O)c2ccccc2C)cc1	0.4	1.0%	-12	.	-2	-0.7
Cc1cccc(NC(=O)CSc2nnc3ccc(-c4ccccn4)nn23)c1	-3.6	6.8%	0	0	-3	0.1
Cc1nn(-c2ccc(F)cc2)c(Cl)c1/C=C1\C(=O)Nc2ccccc21	1.4	8.4%	-9	6	-1	0.1
COc1ccc(C(=O)O)cc1S(=O)(=O)N(C)C	-1.4	2.0%	3	-8	5	-0.8
Cc1cc(C)c(S(=O)(=O)N2CCCCC2CCNC(=O)C(=O)NC2CC2)c(C)c1 (stereo not given)	4.9	1.7%	-1	5	6	-0.2
CCC(=O)c1ccccc1OCCSc1nc(C)cc(=O)[nH]1	-1.1	-6.0%[38.3 µM]	-8	-5	-21	-0.3
CC(C)COc1ccc(C(=O)OCCN2CCCCC2)cc1	-4.1	5.0%	-9	-8	3	0.6
COC(=O)COc1ccc2c(c1C)O/C(=C\c1ccco1)C2=O	2.9	6.6%	-1	0	1	-0.8
O=C(COc1ccc(F)cc1)Nc1nnc(S(=O)(=O)N2CCCC2)s1	-0.8	2.1%&2.2%	-6	-7	3	-0.9&1.8
COc1ccnc(-n2cccc2/C=N/O)c1C#N	3.4	-0.8%	0	-4	-20	1.4
Cc1sc(N/N=C/c2cccnc2)nc1-c1ccccc1	6.6	0.5%	-16	25	-14	1.2
O=C(CNC(=O)c1ccc(Cl)c([N+](=O)[O-])c1)NCC1CCCO1 (stereo not given)	4.6	4.5%	3	-3	1	0.2

Sorted by SMILES length (high to low): some entries from above
SMILES	D2 ag	PINK1 modulator	Six1-Eya2 blk	D2 PAM	CtBP-E1A blk	TRPML1 agonist
O=C(COc1ccc(F)cc1)Nc1nnc(S(=O)(=O)N2CCCC2)s1	-0.8	2.1%&2.2%	-6	-7	3	-0.9&1.8
COC(=O)COc1ccc2c(c1C)O/C(=C\c1ccco1)C2=O	2.9	6.6%	-1	0	1	-0.8
COc1ccc(C(=O)O)cc1S(=O)(=O)N(C)C	-1.4	2.0%	3	-8	5	-0.8

One compound at a time, as listed above. Order of values: D2 ag, PINK1 modulator, Six1-Eya2 blk, D2 PAM, CtBP-E1A blk, TRPML1 agonist
Listed for O=C(CNC(=O)c1ccc(Cl)c([N+](=O)[O-])c1)NCC1CCCO1 (stereo not given) : 4.6, 4.5%, 3, -3, 1, 0.2
Listed for COC(=O)COc1ccc2c(c1C)O/C(=C\c1ccco1)C2=O : 2.9, 6.6%, -1, 0, 1, -0.8
Listed for COc1ccc(C(=O)O)cc1S(=O)(=O)N(C)C : -1.4, 2.0%, 3, -8, 5, -0.8

Hits appear at their usual frequency; about 1.3% have a hit in one of these screens.
